Bioassay records as filed in PubChem BioAssay.
FGF22 binding: binders of human FGF22 protein, primary screen, FGF22 synaptogenesis inhibitor project, biophysical, thermal shift, single point. recombinant FGF22 thermal shift, SYPRO orange fluorescence; percent of sucrose octasulfate shift, DMSO zero. calls only at 9.99 µM. Fibroblast growth factor 22 (Homo sapiens), Q9HCT0. AID 651658, 2012. 340,000 tested, 1.5% active;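 active means melting point raised past a set limit in the mean and every replicate; three in four hits are not shown here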
Vif TR-FRET: inhibitors of Vif binding to APOBEC3G peptide, primary screen, biochemical, TR-FRET, GST-Vif 1-94, biotin-A3G peptide, dose response retest (AID 1117319); Virion infectivity factor (Human immunodeficiency virus type 1 group M subtype B (isolate …; TR-FRET GST-Vif / biotin-A3G peptide binding; higher % means a stronger effect; test concentration not given here; strong numbers were not always called active; inhibition, %; hits with a dose series show IC50 in µM; 260,000 tested, 0.57% active;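 active means above the screen mean plus three standard deviations and confirmed in dose response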;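 further: Vif residues 1-94 fused to GST binding biotinylated APOBEC3G peptide 110-148; 0% = full assay without inhibitor and 100% = GST in place of GST-Vif; retest series ran down from 100 µM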
ALR inh: inhibitors of human ALR sulfhydryl oxidase, primary screen, biochemical, H2O2 detection, HRP-luminol luminescence, single point | purified ALR, DTT oxidation | inhibition, % (test concentration not listed) | AID 485317, 2010 | FAD-linked sulfhydryl oxidase ALR (Homo sapiens), P55789 | 290,000 tested, 3.8% active;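 active means mean and each replicate at 75% or more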;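 further: stock transfer was 7.5 nL into about 7.5 µL; 0% = neutral wells and 100% = wells with inactivated enzyme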
HNF4A DNA FP: change in binding of human HNF4A to DNA, primary screen, biochemical, fluorescence polarization, FITC-DNA; 1 h; 360,000 tested, 0.3% active; Hepatocyte nuclear factor 4-alpha (Homo sapiens), P41235; activity change, % at 10 µM; AID 1224865, 2016; in the data active means activity change above about 30%, passing the limit was not always enough;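 further: controls were the assay level and a saturating level of protein; the project sought stronger binding though the title names inhibitors; some compounds called inactive have numbers as strong as hits; positive values seem to mean higher polarization but the record does not say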
Target sequence (P41235 whole entry, looked up): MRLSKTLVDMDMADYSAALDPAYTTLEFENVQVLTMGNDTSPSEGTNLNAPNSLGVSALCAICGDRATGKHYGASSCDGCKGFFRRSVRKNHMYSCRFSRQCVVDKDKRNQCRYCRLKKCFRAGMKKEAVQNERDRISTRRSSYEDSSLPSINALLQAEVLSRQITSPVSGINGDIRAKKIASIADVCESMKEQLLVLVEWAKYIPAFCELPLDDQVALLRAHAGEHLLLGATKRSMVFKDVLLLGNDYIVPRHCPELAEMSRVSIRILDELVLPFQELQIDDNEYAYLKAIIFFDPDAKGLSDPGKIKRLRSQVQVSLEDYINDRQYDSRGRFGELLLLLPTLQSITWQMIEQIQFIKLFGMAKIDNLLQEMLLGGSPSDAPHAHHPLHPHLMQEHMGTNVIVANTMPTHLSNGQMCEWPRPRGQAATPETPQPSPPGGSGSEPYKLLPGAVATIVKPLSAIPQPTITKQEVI
MLL AF4-AF9 inh: inhibitors of AF4 peptide binding to AF9, primary screen, biochemical, AlphaScreen, biotin-AF4 peptide, FLAG-AF9, single point | Protein AF-9 (Homo sapiens), P42568 | 350,000 tested, 0.47% active | inhibition, % at 10 µM | AID 651704, 2012;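 active means every replicate reaching a set inhibition limit, whatever the replicate mean, cut at about 25% in these data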;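 further: 0% = plate neutral control median and 100% = total signal loss; the record names both 10 and 1 µM as test concentration; the first replicate is given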
Target sequence (P42568 whole entry, looked up): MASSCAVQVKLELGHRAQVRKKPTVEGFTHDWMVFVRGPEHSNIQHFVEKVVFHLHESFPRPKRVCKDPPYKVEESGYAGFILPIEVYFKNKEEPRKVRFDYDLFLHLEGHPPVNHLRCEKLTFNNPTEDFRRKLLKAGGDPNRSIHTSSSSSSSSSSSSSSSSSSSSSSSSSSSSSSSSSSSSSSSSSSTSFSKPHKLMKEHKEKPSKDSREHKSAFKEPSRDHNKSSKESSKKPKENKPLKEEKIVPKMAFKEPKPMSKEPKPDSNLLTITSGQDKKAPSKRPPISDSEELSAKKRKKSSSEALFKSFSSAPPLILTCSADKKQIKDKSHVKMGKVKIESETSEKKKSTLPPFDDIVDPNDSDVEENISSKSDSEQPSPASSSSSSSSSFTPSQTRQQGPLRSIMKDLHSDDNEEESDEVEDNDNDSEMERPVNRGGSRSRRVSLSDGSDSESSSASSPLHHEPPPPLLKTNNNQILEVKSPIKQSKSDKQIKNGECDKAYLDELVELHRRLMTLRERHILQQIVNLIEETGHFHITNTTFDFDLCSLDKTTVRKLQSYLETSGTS
Ecoli rRNA inh: reduced GFP signal of wild-type E. coli, primary screen, bacterial rRNA inhibitor project, GFP/RFP fluorescence, OD600, single point; E. coli WT GFP vs humanized-ribosome RFP mutants, 24 h; stronger effect = lower value; DMSO median 0, no signal -100; GFP signal change (wild-type ribosome), % (concentration not given with the values); 350,000 tested, 1.6% active; AID 720706, 2013;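 active means significant combined selectivity score with lowered wild-type GFP, culture density cut under 30%, mutant RFP and density less affected; inactive means any of these conditions unmet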; further: one replicate is shown; some compounds called inactive have numbers as strong as hits
E coli growth: E. coli growth inhibition, primary screen, OD600 | Escherichia coli growth, 23 h; stronger effect = lower value | OD600 absorbance (no concentration beside the values) | 330,000 tested, 0.21% active | AID 1053175, 2014;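 active means OD600 absorbance below the run mean of sample wells minus 3.6 SD, in any replicate, cut at about 0.56 in these data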;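 further: stock transfer was 300 nL into about 60 µL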
Ecoli rRNA inh OD600: recorded beside Ecoli rRNA inh, whose call it bears; OD600 change, %; measured here: OD600 growth;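 optical density of the mix in the first replicate; 0 = DMSO median and -100 = no signal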
Ecoli rRNA inh RFP: recorded beside Ecoli rRNA inh, whose call it bears; RFP signal change, %; measured here: RFP humanized mutant strains;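 first replicate; 0 = DMSO median and -100 = no signal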
* = called active by the depositor; i = inactive; / = not tested or not shown; & = joins results of further samples.

no.	smiles	FGF22 binding	Vif TR-FRET	ALR inh	HNF4A DNA FP	MLL AF4-AF9 inh	Ecoli rRNA inh	Ecoli rRNA inh OD600	Ecoli rRNA inh RFP	E coli growth
1	COc1ccc(C(=O)NC2=NCCS2)cc1S(=O)(=O)N1CCCCC1C (centres undefined)	i	5.1%	-14.7	-2.6	0.8	-16.0	-21.2	-2.2	0.667
2	COc1ccc(NC(=O)/C=C/c2ccc(OC)c(OC)c2)cn1	/	/	-2.2	3.8	0.7	-16.6	-9.6	-3.4	0.693
3	COC(=O)N(C)C[C@@H]1OCc2cnnn2CCCC(=O)N([C@@H](C)CO)C[C@H]1C	i	-0.3%	/	4.0	-2.9&-0.5	4.7&-0.1	11.0&3.0	-0.3&-1.5	/
4	CC(C)(C)OC(=O)NCC(=O)NNC(=O)C(C(=O)OCc1ccccc1)c1ccccc1 (centres undefined)	i	/	2.4	5.2	2.3	-0.8	-4.8	1.6	0.657
5	COc1cc(OC)cc(C(=O)N[C@H](C(=O)NNC(=O)c2ccc(Br)cc2)C(C)C)c1	i	-9.2%	-9.8	2.2	-0.5	-10.8	-13.6	2.7	0.668
6	Nc1ccc(-n2nncc2-c2ccc(Cl)cc2)cc1	/	0.5%	-2.8	4.5	/	/	/	/	0.712
7	CCOC(=O)C1CCN(S(=O)(=O)c2c(C)n(C)c(=O)n(C)c2=O)CC1	i	0.4%	-27.7	1.4	-3.3	4.0	14.4	-7.1	0.721
8	COCC(=O)N1CCC2(CC1)CN(Cc1ccccc1Cl)[C@H](CO)c1c2c2ccc(OC)cc2n1C	i	/	/	/	1.0	5.1	-2.9	0.0	/
9	C[C@H](CO)N1C[C@H](C)[C@@H](CN(C)C(=O)C2CC2)Oc2ncc(-c3ccccc3F)cc2C1=O	i	/	/	/	-0.8	-1.3	0.0	0.7	/
10	Cc1cc(N2C(=O)C3C4CC(c5ccccc5)C(C4)C3C2=O)no1 (centres undefined)	i	1.9%	-18.7	-2.9	0.4	-7.1	-5.9	2.3	0.67
11	CSc1ccc(N/N=C(/C#N)S(=O)(=O)C(C)(C)C)cc1	i	5.1%	36.3	0.9	0.1	-29.4	-28.9	-3.2	/
12	O=C1NC(=O)N(C2CCCCC2)CC1Br (centres undefined)	i	0.4%	/	1.1	5.9	11.3	8.3	0.4	0.67
13	C[C@@H]1CN([C@@H](C)CO)C(=O)c2cc(NC(=O)Nc3ccc4c(c3)OCO4)ccc2O[C@@H](C)CCCCO[C@H]1CN(C)C(=O)c1ccccc1	i	/	/	/	-9.2	-1.9	-0.1	0.2	/
14	CCOC(=O)C1=C(c2ccccc2)NC(=O)NC1c1ccsc1 (centres undefined)	i	-1.7%	-17.4	0.4	1.1	5.0	6.9	6.6	0.722
15	COc1ccccc1CNC(=O)[C@H](C)NC(=O)[C@@H]1Cc2ccccc2CN1	i	0.8%	-1.8	-1.6	-1.4	-1.7	4.4	-4.8	0.664
16	COCc1ccc(CN2CCc3c([nH]c4ccccc34)C2C(C)(C)C)o1 (centres undefined)	i	10.7%	58.4	3.4	7.5	-6.6	-10.2	-2.3	0.658
17	CC(C)Nc1nnc(SCC(=O)/C=C2\N(C)c3ccccc3C2(C)C)s1	i	/	-3.2	5.6	3.5	/	/	/	0.712
18	COc1ccc(CC(=O)OCC(=O)NCc2ccco2)cc1OC	i	>100µM*	10.9	-1.3	-1.9	2.2	10.9	-2.2	0.691
19	O=C(C[C@@H]1CC[C@@H](NS(=O)(=O)c2ccc(F)cc2)[C@H](CO)O1)NCc1ccncn1	i	/	/	/	-1.9	3.2	5.5	-1.6	/
20	Cc1ccc(N2C(=O)c3ccc(C(=O)NCCN4CCOCC4)cc3C2=O)cc1	/	0.5%	-2.4	-2.4	/	/	/	/	0.736
21	CCCCN(C(=O)c1cccc(S(=O)(=O)N(C)c2ccc(C)cc2)c1)c1c(N)n(CCCC)c(=O)[nH]c1=O	i	3.2%	-21.7	-5.0	-0.6	12.1	9.9	1.7	0.709
22	COC(=O)c1ccc(C(=O)NC(=S)Nc2ccc3nc(SC)sc3c2)cc1	i	/	30.3	3.6	-9.7	/	/	/	0.718
23	CCN(CC)c1ccc2c(c1)C(=O)N(C)C2=O	/	-5.8%	-4.1	0.9	/	0.4	-5.9	-3.9	0.735
24	O=C(c1ccc2c(c1)OCO2)N1C[C@@H]2[C@H](c3ccccc31)[C@@H](CO)N2Cc1cccnc1	i	/	/	/	-0.5	-3.5	-2.7	-1.8	/
25	CC(=O)NC(=S)NNC(=O)COc1ccc(Br)cc1	i	-0.9%	/	4.8	-4.5	-41.3	-54.3	-4.6	0.714
26	CO[C@@H]1CC[C@H]2CCOc3c(C#N)cccc3C(=O)N(C)[C@@H](C)C(=O)N(C)C[C@@H]1O2	i	/	/	/	-24.1	3.9	5.4	-2.2	/
27	O=S(=O)(Nc1ccc2ccccc2c1)N1CCCCC1	/	-2.8%	/	1.4	-5.7	-58.9	-81.2	-16.3	0.722
28	COc1ccccc1CN1CC(C(=O)NCCN2CCNC2=O)CCC1=O (centres undefined)	i	/	/	0.1	2.2	17.9	22.0	3.8	0.704
29	COCCCN1C(=O)C(CC(=O)NCc2cccc3ccccc23)CC(C(=O)N(C)C)=C1C (centres undefined)	i	2.0%	/	-3.8	-1.6	2.2	6.0	-2.3	/
30	CC(=O)N(C)C[C@H]1[C@H](c2ccc(-c3cccnc3)cc2)[C@@H](CO)N1C(=O)C1CC1	i	/	/	/	-6.7	0.9	-0.1	-2.3	/

Reprinted from the part before: two entries; new compounds follow.
no.	smiles	FGF22 binding	Vif TR-FRET	ALR inh	HNF4A DNA FP	MLL AF4-AF9 inh	Ecoli rRNA inh	Ecoli rRNA inh OD600	Ecoli rRNA inh RFP	E coli growth
29	COCCCN1C(=O)C(CC(=O)NCc2cccc3ccccc23)CC(C(=O)N(C)C)=C1C (centres undefined)	i	2.0%	/	-3.8	-1.6	2.2	6.0	-2.3	/
30	CC(=O)N(C)C[C@H]1[C@H](c2ccc(-c3cccnc3)cc2)[C@@H](CO)N1C(=O)C1CC1	i	/	/	/	-6.7	0.9	-0.1	-2.3	/
31	O=C(C[C@H]1CC[C@@H](NS(=O)(=O)c2ccc(F)cc2)[C@H](CO)O1)NC1CCCCC1	i	/	/	/	-3.5	-8.1	-6.6	-1.4	/
32	COc1ccc(CCNS(=O)(=O)c2cc3c(cc2C)NC(=O)CO3)cc1OC	i	/	-22.6	1.0	-13.0	0.6	-9.2	-2.3	0.764
33	COc1cc(C(=O)NC2CCCc3ccccc32)cc(OC)c1C (centres undefined)	i	/	-4.5	1.5	-1.6	10.3	11.3	0.5	0.726
34	Cc1c(C(=O)NCCCn2ccnc2)oc2ccccc12	i	-11.6%	15.8	1.5	-1.9	15.3	5.5	0.9	0.702
35	C[C@@H]1CN([C@@H](C)CO)C(=O)c2cccc(NC(=O)Nc3ccc(F)cc3)c2O[C@@H]1CN(C)C(=O)Nc1ccccc1	i	/	/	/	2.6	-0.4	3.1	-0.3	/
36	COc1ccc(S(=O)(=O)NCc2ccc3c(c2)OCO3)cc1OC	i	/	-14.2	-0.1	0.9	4.0	-2.4	4.1	0.67
37	O=C(CN(C(=O)Cn1nnc(-c2ccccc2F)n1)c1cccc2c1CCCC2)NCc1ccccc1	/	3.6%	-16.2	-0.5	/	/	/	/	0.752
38	COc1ccc(C(NC(=O)/C=C/c2ccco2)c2ccc(OC)c(OC)c2)cc1 (centres undefined)	i	/	-1.7	0.4	-0.9	4.8	3.6	-0.7	0.702
39	O=C(C1CC1)N1[C@@H](CO)[C@@H]2c3ccccc3N(S(=O)(=O)c3ccc(F)cc3)C[C@@H]21	i	/	/	/	0.3	3.7	7.6	-3.3	/
40	COc1ccc(-c2nnc(SCC(=O)Nc3cc(C)on3)o2)cc1	i	/	-1.0	2.8	-0.4	22.1	18.1	2.0	0.678
41	Cc1ccc(/C=C/c2ccc3cccc(O)c3n2)s1	i	/	-43.9	17.2	42.2*	-58.3	-77.0	-18.8	0.693
42	Nc1ccc(NC(=O)NC2CCCCC2)cc1	i	2.0%	99.1*	-3.9	2.2	5.4	2.0	-0.9	0.723
43	C[C@@H]1CN([C@@H](C)CO)C(=O)c2cc(NC(=O)Cc3ccccc3)ccc2O[C@H]1CN(C)CC1CCCCC1	i	/	/	/	3.8	4.1	12.8	1.9	/
44	COc1cc(C(=O)Nc2nnc(C(C)(C)C)s2)c([N+](=O)[O-])cc1OC	i	17.3%	-9.5	-2.4	1.2	-7.9	-8.5	-0.8	0.741
45	O=C(CN(C(=O)c1nsc(Cl)c1Cl)c1ccc(F)cc1)NC1CCCC1	i	-5.5%	1.3	6.0	1.4	-2.8	-8.6	0.6	0.705
46	Cc1ccc(C(=O)NC(=C(Cl)Cl)S(=O)(=O)c2ccc(Cl)cc2)cc1	i	-2.8%	25.5	-2.9	-4.2	-24.0*	-3.1*	3.9*	0.704
47	CCCn1c(SCC(=O)Nc2ccc(C(=O)Nc3ccccc3OC)cc2)n[nH]c1=O	i	18.6%	-3.3	-2.4	-1.7	1.4	-2.8	2.6	0.698
48	C[C@H](CO)N1C[C@H](C)[C@H](CN(C)Cc2cccc(F)c2)Oc2cc(C#CC3CC3)ccc2S1(=O)=O	i	/	/	/	0.6	-1.6	-5.5	1.7	/
49	CCCc1nc2ccc(C(=O)OC)cn2c1Cc1ccccc1	i	/	/	1.1	5.1	-30.6	-58.1	-7.2	/
50	C[C@@H]1CN([C@H](C)CO)C(=O)c2cc(NS(=O)(=O)c3cccs3)ccc2O[C@H]1CN(C)CC1CCCCC1	i	/	/	/	0.8	1.9	-0.4	-1.9	/
51	C[C@@H]1CN([C@@H](C)CO)C(=O)c2cc(C#CCc3ccccc3)cnc2O[C@@H]1CN(C)C(=O)C1CC1	i	/	/	/	-3.6	-6.2	-0.8	-1.6	/
52	CCC1Cc2[nH]c(=S)[nH]c(=O)c2C(c2ccc(Cl)cc2)O1 (centres undefined)	i	/	/	3.0	-1.0	-10.6	1.7	4.4	/
53	CSc1ccc(COC(=O)c2cc([N+](=O)[O-])ccc2N2CCOCC2)cc1	i	-1.6%	-2.2	0.3	-2.7	-3.4	7.1	2.3	0.699
54	C=CCNC(=O)NC(=O)COC(=O)CCCSc1nc2ccccc2[nH]1	/	10.7%	-4.8	1.6	/	/	/	/	0.666
55	Cc1ccc(/C=C2\CCn3c2nc2cc(C(=O)O)ccc2c3=O)c(C)c1	i	-8.2%	3.3	1.2	-2.3	1.9	8.7	-0.3	0.695
56	Nc1c(N(CCC2=CCCCC2)C(=O)COc2ccc(F)cc2)c(=O)[nH]c(=O)n1Cc1ccccc1	/	-3.4%	-8.6	5.1	/	/	/	/	0.709
57	C[C@@H](NC(=O)[C@H]1[C@H](CO)[C@H]2Cn3c(cccc3=O)[C@@H]1N2C(=O)C1CC1)c1ccccc1	i	/	/	/	-0.2	1.2	0.3	-3.4	/
58	CCCN1C=CC(=C2C(=O)c3ccccc3C2=O)C=C1	/	-1.1%	-5.1	9.6	/	/	/	/	0.681

These rows are one share of the data; count on the stated rates, not on these rows.
